CBX7 inh: CBX7 chromodomain binding inhibitors, primary screen, biochemical, AlphaScreen | Chromobox protein homolog 7 (Homo sapiens), O95931 | AlphaScreen His6-CBX7 / biotin-H3K27me3 peptide binding; active compounds read low | normalised signal (fraction of DMSO) (concentration not given with the values) | hit rate 1.1% among 66,000; in the data active means normalised signal below about 0.5;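 further: 100 nL library stock added to about 20 µL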
Target sequence (O95931 whole entry, looked up): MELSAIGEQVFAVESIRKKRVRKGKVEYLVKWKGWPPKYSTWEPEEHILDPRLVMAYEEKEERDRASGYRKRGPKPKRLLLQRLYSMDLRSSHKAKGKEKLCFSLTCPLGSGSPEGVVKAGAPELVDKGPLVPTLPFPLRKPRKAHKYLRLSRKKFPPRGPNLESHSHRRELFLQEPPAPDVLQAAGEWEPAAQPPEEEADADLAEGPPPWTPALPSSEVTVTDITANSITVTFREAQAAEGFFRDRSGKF
CBX7 inh z-score: further read-out of CBX7 inh, marked with its call; z-score; measured here: z-score of CBX7 signal; some inactives read as strong as hits; reference of the scale not given here;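 same signal on another scale; lower means less binding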
Active calls of the source: *; & = joins results of further samples. Some of the compounds tested, so the mix of outcomes need not match the whole.

The line under a structure holds: CBX7 inh, CBX7 inh z-score
CCOc1ccc(NC(=O)CC23CC4CC(C2)CC(n2nnc(C)n2)(C4)C3)cc1
    0.8, -2.3
Cc1ccc2oc(-c3ccc(N4C(=O)c5cccnc5C4=O)cc3)nc2c1
    0.95, -0.88
CCOc1cc2c(cc1OCC)C(c1ccc(F)cc1)CC(=O)N2 (stereo not given)
    0.88, -1.6
CCC(C)NC(=O)C1CCN(c2nc3ccccc3o2)CC1 (stereo not given)
    1, -0.11
CCOC(CNC(=O)c1ccc2c(c1)nc(C)n2-c1cccc(F)c1)OCC
    0.98, -0.93
N#Cc1nc(-c2ccccc2F)oc1N1CCOCC1
    1.1, 0.65
COc1ccc(C(C)=O)cc1CSc1cc(C)c2ccccc2n1
    0.82, -2.2
COc1ccc(-c2noc(CCC(=O)Nc3ccc(C)cc3Cl)n2)cc1
    0.86, -2.2
COc1cccc(-n2nc(C(=O)NCCc3ccc(OC)c(OC)c3)c3ccccc3c2=O)c1
    0.89, -1.5
CCc1ccc(NC(=O)C(=O)NCCc2c[nH]c3ccccc23)cc1
    1, -0.047
Cc1ccc(S(=O)(=O)N2CC=C(C(=O)NCc3ccccc3)CC2)cc1
    1.3, 2.8
COc1cc(NC(=O)Cn2c(SCc3cc(C)ccc3C)nc3ccncc32)cc(OC)c1
    0.9, -4.7
CC(C)CC(=O)Nc1cccc(-c2nc3ccccc3[nH]2)c1
    1, 0.49
O=C(Cn1cc(S(=O)(=O)c2ccccc2)c(=O)c2ccccc21)Nc1ccc2c(c1)OCCO2
    1.1, 0.79
CC(C)CCNC(=O)C1CCCN(c2nnc(-n3cccc3)s2)C1 (stereo not given)
    0.95, -1
CCn1c(C(=O)N2CCCC(C(=O)N3CCN(c4ccccc4)CC3)C2)cc2sccc21 (stereo not given)
    0.66, -1.5
CCc1ccccc1NC(=O)Nc1ccc2snnc2c1
    1.1, 2.2
O=C1c2cccnc2C(Nc2ccc(Br)cc2F)N1Cc1ccc(F)cc1 (stereo not given)
    0.87, -1.7
COC(=O)c1ccc(Nc2nc(-c3ccc(OC)cc3)c(C)s2)cc1
    1, 0.75
CCCCNC(=O)c1cc2c(n(-c3ccc(Cl)cc3)c1=O)CCCC2=O
    0.99, -0.15
COc1ccc(C(=O)NCCCc2nc3ccccc3n2Cc2ccccc2C)cc1OC
    1.1, 1.1
O=C(C1CCC(CNS(=O)(=O)c2cccc3cccnc23)CC1)N1CCCCCC1 (stereo not given)
    1, 1.2
COc1ccc(C)cc1NC(=O)CN(C)S(=O)(=O)c1cccc2cccnc12
    1.2, 3.7
CCOc1cc2[nH]c(=O)n(Cc3ccc(C(=O)NCc4cccnc4)cc3)c(=O)c2cc1OCC
    1, 0.49
O=C(CSc1nc(-c2ccc(Cl)cc2)[nH]c1-c1ccccc1)Nc1nccs1
    1, 0.24
Cc1cc(OCc2nc(-c3cccnc3)no2)ccc1Br
    1.1, 4.3
Cc1ccc(NC(=O)c2c(-c3c(F)cccc3Cl)noc2C)nc1
    1.1, 0.14
COc1ccc(C2(CNC(=O)C(c3ccccc3)c3ccccc3)CCCC2)cc1OC
    0.9, -1.5
COc1ccc(Cl)cc1NC(=O)c1cc(C(C)C)on1
    0.93, -0.74
CCOC(=O)c1cccc(NC(=O)Cn2nc(Cc3ccncc3)c3ccccc3c2=O)c1
    1, -0.074
COc1ccc(C(=O)CC2(O)C(=O)Nc3ccc(Cl)cc32)cc1OC (stereo not given)
    1, 1.5
O=C(NCc1ccccc1Cl)c1cnc2ccccn2c1=O
    1, 0.074
O=C(CCCN1C(=O)CSc2ncccc21)N1CCOCC1
    1, 0.09
CCc1nc2ccc(C(=O)NC3CCCCCCC3)cc2nc1CC
    0.93, -0.94
CCCCNC(=O)c1cnn2c(C)c(Cc3ccc(F)cc3)c(C)nc12
    1.1, 1.4
O=C(Nc1ccc2oc(-c3ccncc3)nc2c1)c1ccc(-c2ccc(F)cc2)o1
    0.41*, -4.9*
Cc1c(C(=O)Nc2cccc(Cl)c2)oc2ccc(S(=O)(=O)N3CCOCC3)cc12
    1, 0.69
Cc1cc(C)cc(OCC(=O)Nc2ccc(Cl)c(-c3nc4cc(C)ccc4o3)c2)c1
    1, 0.065
COc1ccc(-c2noc(CCC(=O)N3CCN(c4cc(Cl)ccc4C)CC3)n2)cc1
    1.1, 1.5
Cc1ccc2nc(-c3ccc(Cl)cc3)c(Nc3ccc4c(c3)OCO4)n2c1
    0.85, -2.5

Some of these compounds in order of their number in CBX7 inh z-score, rising:
mol | CBX7 inh z-score
Cc1ccc2nc(-c3ccc(Cl)cc3)c(Nc3ccc4c(c3)OCO4)n2c1 | -2.5
CCc1nc2ccc(C(=O)NC3CCCCCCC3)cc2nc1CC | -0.94
O=C(NCc1ccccc1Cl)c1cnc2ccccn2c1=O | 0.074
O=C(CSc1nc(-c2ccc(Cl)cc2)[nH]c1-c1ccccc1)Nc1nccs1 | 0.24
O=C(C1CCC(CNS(=O)(=O)c2cccc3cccnc23)CC1)N1CCCCCC1 (stereo not given) | 1.2
COc1ccc(-c2noc(CCC(=O)N3CCN(c4cc(Cl)ccc4C)CC3)n2)cc1 | 1.5
Cc1cc(OCc2nc(-c3cccnc3)no2)ccc1Br | 4.3

Returning to the listing with the four entries that preceded the break.
The line under a structure holds: CBX7 inh, CBX7 inh z-score
Cc1c(C(=O)Nc2cccc(Cl)c2)oc2ccc(S(=O)(=O)N3CCOCC3)cc12
    1, 0.69
Cc1cc(C)cc(OCC(=O)Nc2ccc(Cl)c(-c3nc4cc(C)ccc4o3)c2)c1
    1, 0.065
COc1ccc(-c2noc(CCC(=O)N3CCN(c4cc(Cl)ccc4C)CC3)n2)cc1
    1.1, 1.5
Cc1ccc2nc(-c3ccc(Cl)cc3)c(Nc3ccc4c(c3)OCO4)n2c1
    0.85, -2.5
Cc1ccc(Cl)cc1N1CCN(C(=O)CCCn2c(=O)[nH]c3ccsc3c2=O)CC1
    1.2, 0.75
Cc1ccc(NC(=O)c2ccc(NS(=O)(=O)c3cccs3)cc2)cc1F
    1, 0.99
Cc1cc(C)c(S(=O)(=O)Nc2ccc3oc4c(c3c2)CC(C)CC4)cc1C (stereo not given)
    0.82, -1.2
Cc1cccc(NC(=O)c2oc3ccc(S(=O)(=O)N4CCCCC4)cc3c2C)c1C
    0.99, -0.25
Cc1ccc(-c2nnc(Nc3ccc(Cl)cc3)c3ccccc23)cc1S(=O)(=O)NCCO
    0.82, -3.4
Cc1ccc(Nc2nc(-c3c(C)nc4ncccn34)cs2)c(C)c1
    0.93, -0.83
CCC1CCCCN1C(=O)c1cc(-c2ccc(Br)cc2)on1 (stereo not given)
    1.1, 3.2
COC(=O)c1ccc(C2C(Oc3ccc(OC)cc3)C(=O)N2CCc2ccc(F)cc2)cc1 (stereo not given)
    1.1, 0.29
O=S(=O)(c1ccc(Cl)cc1)c1nc(-c2ccccc2Br)oc1NCc1ccccc1
    0.61, -14
CN(Cc1ccccc1)S(=O)(=O)c1ccc(C(=O)Nc2ccccc2-c2nc3ccccc3o2)cc1
    1, 0.046
c1cncc(Cc2nnc(Nc3ccc4c(c3)OCCO4)c3ccccc23)c1
    0.94, -1.1
Cc1cc(Nc2ccc(Cl)c(Cl)c2)c2cccc(C)c2n1
    1, 0.37
COc1ccc(C2=NN(CCC(=O)NCc3ccccc3OC)C(=O)CC2)cc1
    1, -0.056
COCCCNC(=O)CSc1nc(-c2cccc(Cl)c2)[nH]c1-c1ccccc1
    0.98, -0.35
COc1cc2c(c(OC)c1)C(c1cccc(Cl)c1Cl)CC(=O)N2 (stereo not given)
    0.98, -0.027
CC1CCCCC1NC(=O)CNc1ccccc1-c1nc2ccccc2[nH]c1=O (stereo not given)
    1, 0.13
CC(C)c1ccc(Nc2cc(C(=O)NC(C)c3ccc4c(c3)OCCO4)c3ccccc3n2)cc1 (stereo not given)
    1.1, 1.9
CCCCOc1ccccc1NC(=O)Cn1nnc(-c2ccccc2Cl)n1
    1.2, 2.4
CCC(=O)N1CCc2cc(S(=O)(=O)Nc3ccc(Br)c(C)c3)ccc21
    1, 0.35
C(#CCN1CCN(Cc2ccccc2)CC1)COCCOC(c1ccccc1)c1ccccc1
    0.9, -2.4
COc1ccc(CNC(=O)c2cc3c(C)nn(-c4ccccc4)c3s2)cc1
    1.2, 5
O=C(CSc1nnc(Cc2cc(=O)[nH]c(=O)[nH]2)n1-c1ccc(F)cc1)Nc1ccc2c(c1)OCO2
    0.99, -0.24
CCOc1ccc(Cc2nc3cc(C(=O)c4ccccc4)ccc3[nH]c2=O)cc1
    1.1, 1.4
O=C1CN(C(=O)c2ccc3c(c2)OCO3)C(c2ccc(F)cc2)c2cc(Br)ccc2N1 (stereo not given)
    0.67, -5.9
COCCCNC(=O)c1nc(-c2ccc(Cl)cc2)oc1C
    1, 0.1
O=C(CN1CCOc2ccccc21)NCc1ccc(F)cc1
    1, 0.63
CCc1cccc(C)c1NC(=O)CN1C(=O)CSc2ncccc21
    1.1, 0.14
CCOC(=O)c1c(NC(=O)c2cccc(Oc3ccccc3)c2)sc2c1CCC2
    1.5, 4.2
CCCCCOc1ccc(C(=O)Nc2c(C(=O)c3ccc(OC)cc3)oc3ccccc23)cc1
    1.1, 2
CCOc1ccc(N(C)S(=O)(=O)c2ccc3[nH]cc(C(=O)NC4CCCCC4)c(=O)c3c2)cc1
    0.78, -3.1
O=S(=O)(c1ccccc1)N(CC(O)CN1CCCCC1)c1cccc2ccccc12 (stereo not given)
    0.95, -0.48
CCOC(=O)c1cc(-c2nnc(-c3ccc(Oc4ccccc4)cc3)o2)c(C)nc1C
    1.3, 3.3
COc1ccc(-c2cn(-c3ccc(F)cc3)c(SCC(=O)Nc3cc(F)ccc3F)n2)cc1OC
    0.88, -0.89
COC(=O)c1ccc2c(=O)n(Cc3ccc4c(c3)OCO4)c(SCC(=O)N3CCCC3)nc2c1
    0.89, -0.3
COc1cc(OC)cc(-c2nc3nc(C)c(CCC(=O)Nc4ccc(C)c(C)c4)c(C)n3n2)c1
    0.94, -1.2
Cc1ccccc1C1CC(=O)C(C(C)C)C(c2ccccc2C)N1 (stereo not given)
    1.2, 7.5
CCCCCn1c(COc2ccc(OC)cc2)nc2ccccc21
    0.92, -0.92
COc1ccc2cc(CCNC(=O)CC3CCCCC3)c(=O)[nH]c2c1
    0.97, -1.1
O=C(CSc1nnnn1-c1ccc(Cl)cc1)Nc1ccccc1Cl
    0.86, -0.19
CCOC(=O)c1c(Cn2cnnn2)n(-c2ccccc2)c2cc(Br)c(OC)cc12
    1&0.81, 0.85&-0.25

Part of the list above, bar-delimited:
compound | CBX7 inh | CBX7 inh z-score
O=C1CN(C(=O)c2ccc3c(c2)OCO3)C(c2ccc(F)cc2)c2cc(Br)ccc2N1 (stereo not given) | 0.67 | -5.9
COCCCNC(=O)c1nc(-c2ccc(Cl)cc2)oc1C | 1 | 0.1

Additional entries:
The line under a structure holds: CBX7 inh, CBX7 inh z-score
O=C(CSc1nccn1-c1cccc(Cl)c1)Nc1cccc(F)c1
    0.83, -3
CCC(C)c1ccc2oc(-c3ccc(NC(=O)c4ccc(OC)c(OC)c4)cc3)nc2c1 (stereo not given)
    1.1, 1.5
Cc1cc2cc(CCNC(=O)C3(c4ccc(Cl)cc4)CCCC3)c(=O)[nH]c2cc1C
    1, 0.41
COc1ccc(C(=O)NCc2nnc(SCC(=O)NC3CCCCC3)o2)cc1
    0.96, -0.47
CC(C(=O)NCC1(c2ccccc2)CCCC1)N1CCCCC1 (stereo not given)
    0.99, -0.25
Cc1ccc(S(=O)(=O)N2CC=C(C(=O)NC3CCC(C)CC3)CC2)cc1 (stereo not given)
    1.1, 1.4
COc1ccc(C(=O)Nc2ccc(Cl)c(-c3nc4ncccc4o3)c2)cc1OC
    0.99, -0.08
COCCNC(=O)c1ccc2c(c1)ncn2-c1ccc(OCc2ccccc2)cc1
    0.94, -1.4
Cc1ccc(-c2nn(C)c(=O)c3ccccc23)cc1S(N)(=O)=O
    1.3, 1
CCN1CCN(c2ncnc3sc(C(=O)Nc4ccc(F)cc4)c(C)c23)CC1
    1.1, 1.9
O=C1CC(c2c(F)cccc2Cl)c2cc3c(cc2N1)OCO3 (stereo not given)
    1, 0.37
Cc1ccc(Cl)cc1NC(=O)C(NS(=O)(=O)c1ccc2c(c1)CCC(=O)N2)c1ccccc1 (stereo not given)
    1.1, 1.8
CC1CCN(C(=O)C2CC(c3ccc(F)cc3)=NO2)CC1 (stereo not given)
    1, 2
CCN1C(=O)c2ccccc2S(=O)c2ccc(C(=O)N3CCN(c4ccccc4OC)CC3)cc21 (stereo not given)
    0.88, -3.2
FC(F)(F)c1cc(-c2ccccc2)nc(NCc2cccnc2)n1
    0.81, -2
Cc1c(C(=O)Nc2ccccc2F)sc2ncn(CC(=O)N3CCCCC3C)c(=O)c12 (stereo not given)
    0.98, -0.52
COc1ccc(N2C(=O)N(c3ccccc3C)C3CS(=O)(=O)CC32)cc1 (stereo not given)
    1.1, 1.5
O=c1nc(N2CCOCC2)ccn1-c1nc(-c2ccccc2)oc1-c1ccccc1
    0.78, -0.77
CCOC(=O)c1c(C)n(C)c2ccc(OCC(O)CNCc3ccccc3)cc12 (stereo not given)
    0.92, -3.4
CC(=O)Nc1ccc(NC(=O)Cn2cnc3c(nnn3-c3cccc(Cl)c3)c2=O)cc1
    0.94, -1.2
CCCCNC(=O)c1cc(Nc2cccc(SC)c2)nc2ccccc12
    1.1, 2.3
CCCc1ncc(C(O)c2ccccc2OC)n1C (stereo not given)
    1.1, 0.34
Cc1ccc(S(=O)(=O)c2cn(Cc3cccc(Cl)c3)c3ccc(F)cc3c2=O)cc1
    0.98, -0.71
COC(=O)COc1ccc2c(=O)c(-c3csc(C)n3)c(C)oc2c1
    1.2, 3.3
COc1ccc(-n2ccnc2SCC(=O)Nc2ccccc2OC)cc1
    0.66, -0.45
Cc1nc2c(-c3ccccc3)c(C)nn2c(C)c1CCC(=O)Nc1ccc(F)cc1F
    0.97, -0.67
CC(=O)Nc1nnc(-c2ccc(Cn3c(-c4cscn4)nc4ccccc43)cc2)s1
    1, 0.12
CCc1nnc(NC(=O)c2ccc(S(=O)(=O)N(C)Cc3ccccc3)cc2)o1
    0.43*, -5.5*

Bioassay records (PubChem)
